# TRPML1 blocker: blocks the human TRPML1 channel; Q9GZU1; TRPML1-inducible cells, Ca2+ dye fluorescence, FDSS; active compounds read low; inhibition of EC80 agonist-evoked calcium signal; activity change, negative = inhibition, % (no concentration beside the values); 0.02% of 390,000 active; in the data active means activity change below about -50%; inconclusive means about -30% to -50%; inactive means above about -30%;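 further: stimulus is agonist 54-4 at its EC80 concentration; on the % scale 0 is the no-effect control and ±100 the full control effect; compound concentration not given in the record; the text of the record puts the active cut at -80%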
# Target sequence (Q9GZU1 whole entry, looked up): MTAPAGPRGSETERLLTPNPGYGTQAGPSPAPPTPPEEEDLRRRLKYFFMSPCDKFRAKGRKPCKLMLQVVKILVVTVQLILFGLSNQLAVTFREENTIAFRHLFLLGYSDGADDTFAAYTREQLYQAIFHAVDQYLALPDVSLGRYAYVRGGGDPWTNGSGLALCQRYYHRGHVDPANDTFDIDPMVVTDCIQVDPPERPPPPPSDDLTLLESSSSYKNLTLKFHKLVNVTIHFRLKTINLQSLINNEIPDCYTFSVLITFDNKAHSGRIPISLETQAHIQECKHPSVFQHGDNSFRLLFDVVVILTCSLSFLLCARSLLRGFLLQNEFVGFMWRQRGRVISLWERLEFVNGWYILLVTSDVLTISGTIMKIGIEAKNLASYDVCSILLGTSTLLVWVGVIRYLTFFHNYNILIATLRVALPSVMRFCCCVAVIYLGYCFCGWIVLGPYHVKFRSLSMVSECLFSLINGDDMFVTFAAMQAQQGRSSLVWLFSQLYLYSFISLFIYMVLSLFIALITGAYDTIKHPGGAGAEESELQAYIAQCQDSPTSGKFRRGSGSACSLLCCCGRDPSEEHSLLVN
#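 TRPML1-DL cells, Tet-induced overnight (~16 h, 37 °C) at 1,500 cells/well, were loaded with Ca8 no-wash dye plus quencher for 45-90 min at room temperature. Compounds were pinned during FDSS kinetic reading; agonist 54-4 at EC80 (4 uM final) then added.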
# TRPML1 agonist: agonists of human TRPML1 channel. Q9GZU1. TRPML1-expressing cells, Ca2+ dye fluorescence, FDSS; host cell line not named in the record; reference of the full effect not given here. activation, % (test concentration not listed). 0.12% of 410,000 active; in the data active = activation above about 50%; inconclusive = about 30% to 50%; inactive = below about 30%; further: 0% is about no effect; the text of the record puts the active cut at 80%
#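 Tetracycline-induced TRPML1-DL cells are seeded and incubated overnight before loading with a no-wash Ca2+ dye and quencher. Agonist activity is taken from the 110 s fluorescence read following compound pin-transfer on an FDSS, before EC80 54-4 challenge.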
# Starred values were filed as active, the others as inactive; ? = inconclusive. Some of the compounds tested. The share of hits here may be higher or lower than overall.
mol	TRPML1 agonist	TRPML1 blocker
O=c1c(N2CCN(c3cccc(C(F)(F)F)c3)CC2)csc2ccccc12	-0.7	-8
N#Cc1ccc(NC(=O)c2ccc3c(c2)nnn3C2CCCC2)cc1	-0.4	-5
CCC1CN(S(=O)(=O)c2cc(-c3cc(C)no3)ccc2C)c2cc(C)ccc2O1 (stereo not given)	-0.2	15
COc1ccc(Nc2nc(N)nc(CSc3nc4ccccc4s3)n2)cc1	2.0	1
Cc1ccc(-c2nc3cc(NC(=O)c4cc5ccccc5o4)ccc3o2)cc1Cl	0.3	7
COc1ccc(N(Cc2ccccc2)C(=O)c2nc(SC)ncc2Cl)cc1	2.0	48
O=C(Cn1c(=O)n(-c2ccccc2)c(=O)c2c3c(sc21)CCC3)c1ccc(F)cc1	1.6	2
N#Cc1ccccc1Cn1c(=O)n(-c2ccccc2)c(=O)c2c3c(sc21)CCC3	0.9	-13
Cc1c(NC(=O)c2sc3c([N+](=O)[O-])cccc3c2Cl)cccc1-c1nc2ccccc2o1	-0.2	-20
CCOc1ccc(S(=O)(=O)N2CCC(n3c(C)nc4cccnc43)CC2)cc1	1.7	-11
CCOC(=O)c1c(C)[nH]c(C)c1S(=O)(=O)N(C)CC(=O)Nc1ccc(C)c(N(C)C)c1	-0.1	11
CC1CCc2c(sc3nnn(Cc4ccc(F)cc4)c(=O)c23)C1 (stereo not given)	-0.6	4
CCOCCc1nnc(NC(=O)C(=O)c2cc(C)n(-c3ccc(Cl)cc3)c2C)s1	1.5	29
Clc1ccccc1CSc1nncn2c1cc1occc12	1.9	17
CN(C)c1oc(/C=C/c2ccc(F)cc2)nc1C#N	-0.2	-7
COc1ccc(-n2c(SCC(=O)Nc3cccc(C)c3C)nc3c([nH]c4ccccc43)c2=O)cc1	-0.1	7
CCOc1ccc(CCNC(=O)c2cc3c(=O)n(C)c4ccccc4c3n2C)cc1	-0.8	-11
COc1ccc(N(C)C(=O)c2nn(-c3ccc(C)cc3)c(=O)n(C)c2=O)c(OC)c1	-0.9	8
O=C(CCC1N=C2c3ccccc3N=C(SCC(=O)NCCc3ccccc3)N2C1=O)NCc1ccc(F)cc1 (stereo not given)	-1.1	-6
CC(C)NC(=O)c1ccc(-n2c(-c3ccccc3)cc3c2CCCC3)cc1	0.8	-9
COc1cccc(CN2CCc3nc(N4CCN(C)CC4)ncc3C2)c1	0.6	-10
CCOc1ccc(S(=O)(=O)Nc2ccc(-c3ccc(N4CCCC4)nn3)cc2)cc1	-0.7	-8
COc1cc(OC)c(NC(=O)c2c(N3CCCC3=O)c3cc(C)ccc3n2C)cc1Cl	0.4	-8
COc1ccc(C2/C=C\CN(Cc3ccccc3)C(C)C(=O)N2Cc2ccc(F)cc2)cc1 (stereo not given)	1.4	63
O=C(CCCn1c(=O)c2cccn2c2cccnc21)Nc1ccccc1Br	-1.0	1
O=C(O)CCn1cnc2onc(-c3cc(F)cc(F)c3)c2c1=O	-0.7	2
CC(C)OCCCn1c(SCC(N)=O)nc2c(sc3ccccc32)c1=O	-0.3	9
Cc1cc(C)c(Cn2c(C3CC(=O)N(c4ccc(F)cc4)C3)nc3ccccc32)c(C)c1 (stereo not given)	1.3	-12
CCc1cccc(CC)c1NC(=O)C(CC)n1nc(C)n2c(cc3cc(C)ccc32)c1=O (stereo not given)	0.5	23
Cc1nc2nc(SCc3c(F)cccc3Cl)nn2c(C)c1Cc1ccccc1	3.0	58

# Whole records from above. Screens in order: TRPML1 agonist | TRPML1 blocker
# COc1ccc(C2/C=C\CN(Cc3ccccc3)C(C)C(=O)N2Cc2ccc(F)cc2)cc1 (stereo not given) is listed as 1.4 | 63
# CC(C)OCCCn1c(SCC(N)=O)nc2c(sc3ccccc32)c1=O is listed as -0.3 | 9
# O=C(CCCn1c(=O)c2cccn2c2cccnc21)Nc1ccccc1Br is listed as -1.0 | 1
# CCOc1ccc(S(=O)(=O)Nc2ccc(-c3ccc(N4CCCC4)nn3)cc2)cc1 is listed as -0.7 | -8
# CC(C)NC(=O)c1ccc(-n2c(-c3ccccc3)cc3c2CCCC3)cc1 is listed as 0.8 | -9

# Further records
mol	TRPML1 agonist	TRPML1 blocker
CN(C)S(=O)(=O)c1ccc2c(c1)N(CC(=O)N1CCN(c3ccc(F)cc3)CC1)CCS2	1.9	-8
Cc1ccc2c(c1)c(=O)c(C(=O)c1ccc3c(c1)OCO3)cn2Cc1ccc(Cl)cc1	-0.2	-9
COc1ccc(CNC(=O)C2CCN(c3nc4ccccc4[nH]3)CC2)cc1OC	1.2	-7
Cc1coc2cc3oc(=O)c(CC(=O)N4CCCCC4)c(C)c3cc12	-0.6	10
COc1cccc(CNC(=O)C2CCN(C(=O)N3CCOc4ccc(Cl)cc43)CC2)c1OC	1.0	-22
O=S(=O)(c1ccc(F)cc1)N(Cc1nc(-c2ccc(Cl)cc2)no1)C1CCCCC1	-0.5	17
Cc1ccc(C(=O)Nc2cc3c(cc2C)n(C)c(=O)c(=O)n3C)cc1	2.5	25
CCCSc1ncc(Cl)c(C(=O)N(Cc2ccccc2)c2ccc(OC)cc2)n1	4.3	57
CCOC(=O)c1cc(-c2ccc(C)cc2)n(CC(=O)Nc2cccc(C(C)=O)c2)c1C	-0.6	-17
Cc1ccc(CCNc2nc3ccccc3c3nc(-c4cccnc4)nn23)cc1	-0.9	6
CCOc1ccc(NC(=O)NCc2ccc3c(c2)CCN3C(C)=O)cc1	-0.3	3
Cc1cn2c(=O)cc(COC(=O)c3ccccc3F)nc2s1	-1.0	4
Cc1nn(C)c2c1c(C(F)(F)F)cc(=O)n2Cc1ccc(Br)cc1F	1.3	19
COc1cc(OC)c(NC(=O)c2c3c(nc4ccccc24)C(=O)N(C2CCCCC2)C3)cc1Cl	-0.2	0
Cc1ccc(Cl)cc1-n1ncc2c(N3CCCCCC3)ncnc21	1.2	4
COCCCNC(=O)c1nn(C)c2c1CS(=O)(=O)c1ccccc1-2	1.2	41
CCc1c(C)sc2c1CCN(Cc1ccccc1)C2c1ccccc1 (stereo not given)	-0.7	-3
Cc1cc(C)c(Cn2c(C)c(CNCc3ccccc3C)c(C(=O)O)c2C)c(C)c1	-0.2	-21
COC(=O)C(CCSC)NC(=O)C1CCN(c2ncnc3c2nc2n3CCCCC2)CC1 (stereo not given)	2.5	4
Cc1ccc(Cl)cc1NC(=O)Cn1c(=O)n(Cc2ccc(C(=O)NCc3ccc4c(c3)OCO4)cc2)c(=O)c2ccccc21	-0.2	-4
CCn1nc(-c2ccccc2)c(-c2ccccc2)c(C(=O)Nc2ccc(NC(C)=O)cc2)c1=O	11	2
Cc1ccc(Nc2ncc(C(=O)N3CCN(c4ccc(F)cc4)CC3)c3ccccc23)cc1Cl	-0.5	-21
COc1cc(C(=O)NCCc2sc(-c3ccc(C)cc3)nc2C)cc(OC)c1OC	3.2	3
O=C(NCc1ccccc1Cl)c1ccc(NC(=O)N2CCSc3ccccc32)cc1	1.5	1
Cc1nc(SCC(=O)Nc2ccc(C(=O)O)cc2)n[nH]1	0.0	35
O=C(c1ccc(CS(=O)c2ccccc2Cl)o1)N1CCN(c2cccc(C(F)(F)F)c2)CC1 (stereo not given)	1.9	13
Cc1cc(C)n(-c2nc3cc(Cl)ccc3nc2Nc2ccc(C)c(F)c2)n1	-0.3	-10
Cc1ccccc1Nc1c(-c2cccc(O)c2)nc2ccc(Br)cn12	-0.4	-13
COc1ccc(-c2cc(C(=O)Oc3ccccc3)c3cc(C)ccc3n2)cc1	-0.2	-15
Cc1ccc2c(c1)c(=O)c1ccccc1n2CCCC(=O)Nc1ccc(C)c(C)c1	4.6	45
O=C(Cc1ccc(NC(=O)N2CCSc3ncccc32)cc1)NCCc1ccccc1	1.2	-9
Cc1ccccc1-c1noc(CSc2nnc(-c3ccncc3)n2-c2ccc(F)cc2)n1	0.6	-11
NS(=O)(=O)c1ccc(NC(=O)CN2C(=O)COc3ccc(Cl)cc32)cc1	-0.6	8
CCc1ccc(CNC(=O)c2cc3c(=O)oc4ccc(C)cc4c3s2)cc1	-0.3	26
CCOC(=O)c1cccc(NC(=O)CCS(=O)(=O)c2ccc3c(c2)CCN3C(=O)CC)c1	0.0	-2
Cc1cc(OCC(=O)Nc2sc3c(c2C(N)=O)CCCC3)ccc1C(C)C	-0.4	1
CCCN(C(=O)c1cc2c(=O)oc3ccccc3c2s1)c1cccc(Cl)c1	0.9	-1
COc1ccc(CNC(=O)C2CCN(C(=O)N3CCOc4ccc(Cl)cc43)CC2)cc1	1.2	-15
Cc1ccc(NC(=O)/C=C/c2ccc(C)o2)c(C)c1	-0.7	7
Cc1ccc2c(c1)NC(=O)C(CC(=O)Nc1ccccc1Cl)O2 (stereo not given)	-0.4	8
Cc1cc2ccccc2n1CCNC(=O)c1ccccc1F	-1.4	11
COc1ccccc1N1CCN(c2ncnc3c2cnn3-c2ccc(C)cc2)CC1	0.8	6
COC(=O)c1cc2sc(C)cc2n1Cc1ccc(Br)cc1F	0.3	-11
Cn1cc(CCCC(=O)NCc2cccc(Br)c2)c2ccccc21	3.1	?
Cc1ccc2c(c1)C(C)(c1ccccc1)CC(C)(C)N2C(=O)c1ccc(F)cc1 (stereo not given)	3.0	61
O=C(CN(c1cc(C(F)(F)F)ccc1Cl)S(=O)(=O)c1ccccc1)NCCc1ccccc1	-0.3	37
CCOc1ccc(-c2ncnn2-c2sc3c(c2C#N)CCCCC3)cc1	-0.9	-5
O=C(Nc1cccc(C(F)(F)F)c1)c1cc(-c2ccc3c(c2)OCCO3)on1	3.3	-10
CCOc1ccccc1C(=O)N(Cc1cc(OC)c(OC)c(OC)c1)c1ccccn1	-1.0	31
Cc1cccc(NC(=O)Cn2c(=O)n(Cc3ccc(C(=O)NCc4ccc5c(c4)OCO5)cc3)c(=O)c3ccccc32)c1	0.0	-16
CC(C)(C)OC(=O)N1CCC(c2c(C(=O)N3CCN(c4ccccn4)CC3)cnn2-c2cccc(F)c2)CC1	2.1	-2
CCOc1ccc(C(=O)c2cn(Cc3ccccc3)c3c(F)cc(F)cc3c2=O)cc1	3.0	42
Cc1ccc(C(=O)N2CCc3cc(CNC(=O)c4ccnn4C)ccc32)cc1	1.1	5
Oc1c(C(c2ccc(F)cc2)N2CCOCC2)sc2nc(-c3ccco3)nn12 (stereo not given)	1.8	3
COc1cc(Cl)c(NC(=O)c2cc(S(=O)(=O)N3CCOCC3)cn2C)c(OC)c1	1.4	36
Cc1cccc(NC2=CC(c3cccc(Br)c3)N(c3cccc(C)c3)C2=O)c1 (stereo not given)	0.4	15
CN(C)C1(CNC(=O)COc2cccc(Cl)c2)CCCCC1	1.1	2
CCOC(=O)C1CCN(C(=O)C2CCN(C3=NS(=O)(=O)C(c4ccc(C)c(C)c4)=C3C)CC2)CC1	-1.0	27
CC(C)c1ccc(C(=O)Nc2cc(-c3ccccc3F)nn2-c2ccccc2)cc1	-0.3	-1
CC(=O)OCC(NC(=O)C(COCc1ccccc1)NC(=O)OC(C)(C)C)C1OC(n2cc(C)c(=O)[nH]c2=O)C(OC(C)=O)C1OC(C)=O (stereo not given)	0.4	-10

# Further compounds follow.
mol	TRPML1 agonist	TRPML1 blocker
COCCN(CCOC)c1ncnc2c1c(-c1ccccc1)cn2-c1ccc(C)c(Cl)c1	11	-17
COc1ccc(-n2nc(C(=O)NCc3ccc(F)cc3Cl)c3c4ccccc4n(C)c3c2=O)cc1Cl	-0.3	-1
CCc1ccc(C(=O)c2cn(CC(=O)Nc3ccc(Cl)cc3)c3cc4c(cc3c2=O)OCO4)cc1	0.9	16
COc1ccccc1C(=O)NCC(c1ccc(N(C)C)cc1)N1CCc2ccccc21 (stereo not given)	1.1	4
CCOC(=O)c1c(S(=O)(=O)NCC(=O)Nc2ccc(F)cc2C)c(C)n(C)c1C	2.4	18
CCOc1ccccc1CNC(=O)C1CCN(Cc2cc3ccccc3n2Cc2ccccc2)CC1	2.4	10
Cc1cccc(-c2nn3c(=O)cc(CN4CCN(C(=O)/C=C/c5ccccc5)CC4)nc3s2)c1	-0.5	-19
Nc1nc(Nc2ccccc2F)sc1C(=O)c1ccc(Cl)cc1	2.1	5
O=C(Nc1ccc(Cl)c(-c2nc3cc(Cl)ccc3o2)c1)c1cc2ccccc2o1	2.2	22
CC1Cc2cc(S(=O)(=O)CCC(=O)Nc3ccc(Cl)cc3F)ccc2N1C(=O)C1CC1 (stereo not given)	0.8	19
Cc1cccc(N2CCN(C(=O)Cn3nc(Cc4cccnc4)c4ccccc4c3=O)CC2)c1C	1.5	4
COc1ccc(N2CCN(CCCNC(=O)c3cc(Nc4ccc(OC)cc4OC)nc4ccccc34)CC2)cc1	1.4	4
CCc1ccccc1NC(=O)c1ccc(F)c(S(=O)(=O)N2CCN(c3ccccc3OC)CC2)c1	2.5	-1
Cc1cc2nc(-c3cccc(NC(=O)COc4ccc(Cl)c(C)c4)c3)oc2cc1C	-0.8	-3

# Source: PubChem BioAssay
